MT1-MMP act inh – inhibitors of human MT1-MMP activation. P50281. HT1080 RFP-PRO-GFP cells, GFP/RFP ratio fluorescence, overnight; percent of plate control window, DMSO zero. GFP/RFP ratio change, % at 20 µM. hit rate 0.061% among 360,000. AID 651647;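 active = GFP/RFP ratio change of at least 30% with cell ATP level not reduced by more than half and red fluorescence within 50% of control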; also: strong numbers were not always called active
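Material – HT1080 RFP-PRO-GFP cells · Control set – DMSO wells and RFP-L50D-GFP cells · Incubation – overnight cell settling, then overnight compound exposure, 37 °C, 5% CO2 · Compound dosing – single-point 20 µM compound, 1% DMSO · Read-out – GFP/RFP fluorescence ratio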
UUG fidelity – modulators of start codon recognition fidelity in yeast; S. cerevisiae UUG-firefly luciferase reporter, luminescence/redox ratio; activity score, % at 18.7 µM; hit rate 0.13% among 350,000; AID 602363;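 active = replicate mean at a twofold rise or more, about +100% in these data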;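 also: firefly luciferase made from a UUG start codon reports start codon fidelity; reporter light over untreated wells divided by growth signal over untreated wells; some hits fall short of that in this replicate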
CSC inhib – blocks cancer stem cells; cancer stem cell-like cells viability, luminescence; inhibition, % at 7.5 µM; hit rate 1.1% among 300,000;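 active = mean at 75% or more and at least half the replicates too; inconclusive = mean and replicates disagree; tested in HMLE shEcad cells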;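 also: 0% = median of negative and 100% = median of positive control wells; the first replicate is given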
Rce1 inhib – inhibitors of yeast Ras-converting enzyme. Q03530. yeast membranes, quenched prenylated peptide cleavage fluorescence. calls only. hit rate 0.27% among 290,000;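 active = fall in fluorescence gain of 50% or more versus controls, with final raw signal at or below 3038400; inconclusive = same 50% fall but final raw signal above 3038400; inactive = fall in fluorescence gain under 50%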;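 also: plate controls were neutral control wells for no effect and wells lacking membranes for full effect; tested at 10 µM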
Target sequence (Q03530 whole entry, looked up): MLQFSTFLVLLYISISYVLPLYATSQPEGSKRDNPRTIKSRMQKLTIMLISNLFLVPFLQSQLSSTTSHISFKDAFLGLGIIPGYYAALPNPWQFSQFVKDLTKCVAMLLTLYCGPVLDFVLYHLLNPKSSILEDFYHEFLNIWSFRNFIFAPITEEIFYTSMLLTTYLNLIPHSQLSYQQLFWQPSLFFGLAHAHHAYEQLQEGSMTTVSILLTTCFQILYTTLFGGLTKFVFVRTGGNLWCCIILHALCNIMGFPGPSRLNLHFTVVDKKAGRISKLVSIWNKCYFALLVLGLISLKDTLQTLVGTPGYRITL
HIV Env fusion – inhibitors of HIV Env-mediated cell fusion; HeLa-JRFL Env/CEM21 cell fusion, luciferase; inhibition, % at 12.3 µM; hit rate 1.1% among 360,000; AID 651610;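 active = mean replicate inhibition score of at least 50 and every replicate individually at or above 50; inconclusive = only one of the two criteria met; inactive = mean below 50 and not all replicates reaching 50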;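 also: 0% = plate neutral controls and 100% = maraviroc near 300 nM; one replicate is shown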
eIF4H FP inh – inhibitors of RNA binding by human eIF4H; eIF4H fluorescence polarization binding assay; inhibition, % at 35 µM; hit rate 0.94% among 290,000;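 active = 50% or more with normal probe brightness, or confirmed in later tests; inconclusive = above 50% with abnormal brightness, or retests that disagree; inactive = below 50% or failed in later tests; about a fifth of its hits are not listed in these tables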;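 also: calls also rest on retests at 20 µM and on dose response follow-up; 0% = protein and probe with vehicle and 100% = probe without protein; strong numbers were not always called active; many hits fall short of the cut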
PABP polyA inh – blocks human PABP binding to poly(A) RNA; P11940; fluorescence polarization; inhibition, % at 35 µM; hit rate 1% among 290,000; AID 2014;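 active = 50% or more with normal probe brightness, or confirmed in later tests; inconclusive = above 50% with abnormal brightness, or retests that disagree; inactive = below 50% or failed in later tests; about a fifth of its hits are not listed in these tables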;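 also: calls also rest on retests at 20 µM and on dose response follow-up; controls were probe without protein and protein plus probe with vehicle; some compounds called inactive have numbers as strong as hits; many hits fall short of the cut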
Target sequence (P11940 whole entry, looked up): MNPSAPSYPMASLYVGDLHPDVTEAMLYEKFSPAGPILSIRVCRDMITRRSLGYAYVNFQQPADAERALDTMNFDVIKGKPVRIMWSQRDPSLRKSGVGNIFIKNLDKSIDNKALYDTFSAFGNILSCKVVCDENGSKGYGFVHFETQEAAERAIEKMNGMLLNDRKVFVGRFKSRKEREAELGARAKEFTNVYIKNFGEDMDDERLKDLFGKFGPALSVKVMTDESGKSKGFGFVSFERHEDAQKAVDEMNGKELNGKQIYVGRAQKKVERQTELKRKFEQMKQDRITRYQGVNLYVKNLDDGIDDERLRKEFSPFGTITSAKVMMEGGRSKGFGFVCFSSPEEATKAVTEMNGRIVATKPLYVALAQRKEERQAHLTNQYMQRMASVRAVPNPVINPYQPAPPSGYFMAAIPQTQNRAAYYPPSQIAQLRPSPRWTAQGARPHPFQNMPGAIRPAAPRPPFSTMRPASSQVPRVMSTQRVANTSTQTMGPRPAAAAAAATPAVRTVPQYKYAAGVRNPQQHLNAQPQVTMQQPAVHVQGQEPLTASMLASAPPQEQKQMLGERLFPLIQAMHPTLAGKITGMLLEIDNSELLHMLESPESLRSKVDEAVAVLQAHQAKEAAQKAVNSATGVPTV
eIF4H FP inh retest – further read-out of eIF4H FP inh, marked with its call; inhibition, %; compound at 20 µM; confirmation average;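 mean of two retest wells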
PABP polyA inh retest – also measured in PABP polyA inh; calls as there; inhibition, %; compound at 20 µM; confirmation repeats;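 mean of two retest wells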
MT1-MMP act inh RFP – recorded beside MT1-MMP act inh, whose call it bears; RFP signal change, %; measured here: RFP expression control read;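 0 = vehicle wells; hits needed this value within 50% of zero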
* hit, by the source's call; i = inactive; ? = inconclusive; / = no result given; & = joins results of further samples.

SMILES | MT1-MMP act inh | MT1-MMP act inh RFP | UUG fidelity | CSC inhib | Rce1 inhib | HIV Env fusion | eIF4H FP inh | PABP polyA inh | others
COc1ccc(Cc2n[nH]c(=S)n(N)c2=O)cc1 | 5 | 2 | / | -20 | i | 4 | -2 | -7
Cc1c(Cl)cccc1NC(=O)C1CCCN(S(C)(=O)=O)C1 (stereo unspecified) | 1 | 2 | -12 | -8 | i | -8 | -6 | 5
CCn1c(=O)cc(N2CCN(C(=O)c3ccco3)CC2)[nH]c1=O | -3 | -1 | -11 | -4 | i | 0 | 1 | -5
COc1ccc(C(CC(=O)c2ccc(O)cc2)S(=O)(=O)c2ccc(C)cc2)cc1 (stereo unspecified) | 0 | -5 | -14 | 21 | / | / | -9 | 14
O=C(Nc1cc(F)ccc1F)c1ccc2c(=O)n3c(nc2c1)CCC3 | 0 | 10 | -30 | / | / | -9 | / | /
COc1ccccc1CCC(=O)OC(C)C(=O)Nc1c(C)n(C)n(-c2ccccc2)c1=O (stereo unspecified) | 5 | -6 | -3 | 0 | i | 8 | / | /
Cc1csc(SCC(=O)NC2CCC(C)CC2)n1 (stereo unspecified) | -7 | -5 | -16 | -6 | i | 3 | / | /
Cc1onc(-c2ccccc2)c1C(=O)N/N=C/c1ccco1 | 0 | -1 | / | 3 | / | 4 | 8 | 2
Cc1cc(Nc2ccccc2)nn1C(=O)c1ccccc1 | 13 | -1 | -5 | -7 | i | -7 | 17 | -1
CC(C)C(=O)C1=Cc2cc([N+](=O)[O-])ccc2OC1N1CCOCC1 (stereo unspecified) | -1 | -4 | -8 | 48 | i | -2 | 4 | 8
O=C(NCCN1CCCC1)c1ccc(Cn2c(=S)[nH]c3cc4c(cc3c2=O)OCO4)cc1 | -3 | -3 | -22 | -4 | i | -52 | -12 | -24
CCOCC(=O)Nc1nc2ccc(OC)cc2s1 | 1 | -1 | -36 | 3 | i | / | -6 | -5
Cc1ccc(NC2SC(=O)N(CC(=O)O)C2=O)cc1 (stereo unspecified) | -4 | 8 | -6 | -10 | i | / | 4 | 8
Cc1nc2ccccc2c(=O)n1NC(=O)/C=C/c1ccc(Br)cc1 | 0 | -15 | / | -3 | i | -1 | 0 | 8
O=C(NCCN1CCN(c2ccccc2)CC1)c1cccc(Br)c1 | -10 | -14 | -16 | / | i | 0 | 0 | 0
O=C(COc1ccc(-n2cnnn2)cc1)Nc1cccc(Cl)c1Cl | -1 | 0 | -6 | / | i | 4 | 65* | 5 | eIF4H FP inh retest=76*;PABP polyA inh retest=36
O=C(Nc1ccncc1)c1cc(S(=O)(=O)N2CCCC2)ccc1Cl | 8 | -14 | -5 | -10 | / | / | / | /
CCc1ccc(OCC(=O)N2CC(C(=O)OC)Oc3ccccc32)cc1 (stereo unspecified) | -1 | 0 | -15 | -17 | i | -10 | -5 | -1
COc1ccc(CCn2c(=N)c(C(=O)NCCN3CCOCC3)cc3c(=O)n4cccc(C)c4nc32)cc1OC | -2 | -1 | 2 | -1 | i | -20 | -7 | 11
COc1ccc2c(c1)c1nnc(SCC(=O)N3CCCCC3C)nc1n2C (stereo unspecified) | 2 | -1 | -10 | / | / | -18 | -4 | -1
COc1ccc(-n2nc3cc(C)c(NC(=O)CC(C)C)cc3n2)cc1 | / | / | / | / | i | / | -3 | 3
CC1CCN(C(=O)c2[nH]cnc2C(=O)Nc2nccs2)CC1 | 4 | 1 | -14 | -6 | / | -7 | / | /
CCN(CCCNC(=O)CCn1c(=O)[nH]c2ccccc2c1=O)c1cccc(C)c1 | -2 | -3 | -8 | -14 | i | 16 | -9 | -3
CCN(C(=O)COC(=O)/C=C/c1ccc(O)c(OC)c1)C1CCS(=O)(=O)C1 (stereo unspecified) | 1 | 3 | 13 | -9 | i | 3 | 1 | -4
COc1ccc(-c2cc(-c3ccccc3)nc(=O)[nH]2)cc1 | 2 | -1 | / | 8 | i | -8 | -5 | 5
O=C(CCCOc1ccccc1)Nc1ccc2c(c1)OCCO2 | -2 | -1 | -11 | -13 | i | ? | -9 | -1
COc1cccc(-n2c(Cn3nc(C(F)(F)F)cc3C)n[nH]c2=S)c1 | 4 | 5 | 1 | -6 | i | -12 | -4 | -15
N#CC(C#N)c1ccnc2ccccc12 | -7 | -9 | -30 | / | / | 20 | / | /
COc1ccc(NS(=O)(=O)c2ccc(SC)cc2)cc1 | 1 | -7 | -6 | 7 | i | / | -5 | -4
CC(C)C(C)NC(=O)COC(=O)/C=C/c1ccc(S(=O)(=O)N2CCc3ccccc32)cc1 (stereo unspecified) | 0 | -1 | / | -3 | i | 2 | -6 | -17
CC(C)(C)c1ccc(OCC(=O)NNC(=O)c2cccnc2)cc1 | 0 | 2 | / | 5 | i | 9 | 1 | -4
O=C(N/N=C/c1cccnc1)c1cccc(S(=O)(=O)Nc2cccc(Cl)c2)c1 | 2 | 4 | -15 | 14 | i | -5 | -10 | 8
CCCN(C(=O)C1=COCCO1)c1c(N)n(Cc2ccccc2)c(=O)[nH]c1=O | 1 | 1 | / | 0 | i | -1 | / | /
CNC(=O)C1(CC(C)C)C=CCN1C(C)=O (stereo unspecified) | 1 | -1 | -14 | 1 | i | -7 | -3 | 2
CCOC(=O)[C@H]1[C@H]2COc3ccc(Br)cc3[C@@H]2N2C(=O)c3ccc(C)cc3NC(=O)[C@@]12C | -2 | 0 | 9 | -11 | / | -243 | / | /
O=C(NCC(=O)N(c1ccccc1)C(C(=O)NC1CCCCC1)c1ccncc1)c1ccco1 (stereo unspecified) | -1 | 1 | -12 | -2 | i | 7 | 3 | 3
COC(=O)c1ccc2c(c1)SC1=C(CCCC1=O)N2 | 3 | 9 | -23 | -12 | i | / | ? | ?
CNC[C@@H]1Oc2ccc(NS(=O)(=O)c3ccc(Cl)cc3)cc2C(=O)N([C@H](C)CO)C[C@@H]1C | 2 | -3 | -5&12 | -13 | / | -1 | / | /
O=C(COC(=O)CCc1ccccc1)Nc1cc([N+](=O)[O-])ccc1F | 3 | 5 | -6 | -19 | i | / | -4 | -7
COc1cc(C2N(C)C(=O)c3ccccc3N2C)ccc1O (stereo unspecified) | 5 | 4 | -4 | -2 | i | -10 | -18 | 8
COc1ccc(C(=O)n2nc(C)cc2C)cc1Br | -5 | 0 | -17 | 11 | i | -74 | -4 | -1
O=C(O)c1cc(C(=O)C2CCCCC2)c[nH]1 | -5 | -3 | / | 5 | i | -12 | -5 | 3
CC1Oc2ccccc2N(CC(=O)N2CCc3ccccc32)C1=O (stereo unspecified) | 6 | -3 | 1 | -1 | i | -9 | -6 | 1
O=C(CN1C(=O)S/C(=C/C=C/c2ccccc2)C1=O)Nc1ccc(C(=O)O)cc1 | -3 | -1 | / | -7 | i | -1 | 0 | -7
O=C(Nc1nccs1)c1ccc2ccccc2n1 | 3 | 4 | -37 | 6 | i | -138 | 6 | -8
CCCCN(C)C(=O)c1cc2cc3ccc(OC)cc3nc2o1 | 5 | -1 | -1 | 38 | i | -33 | 7 | -8
O=C(CN1CCOCC1)Nc1c(-c2ccccc2)c2cc(Br)ccc2[nH]c1=O | -7 | -8 | -4 | 2 | i | -15 | -2 | -8
COc1ccccc1NC(=O)CSc1nc2[nH]ncc2c(=O)[nH]1 | -1 | -3 | / | 8 | i | / | / | /
O=C(COC(=O)CCC(=O)c1cccs1)Nc1ccc(F)c(F)c1F | -2 | 1 | -17 | 3 | / | / | / | /
Cc1ccccc1-c1cccc([C@@H]2C[C@H]3[C@H](CON3C)CN2S(=O)(=O)c2ccccc2C)c1 | -7 | -8 | -8 | / | / | 40 | / | /

(cont.)
SMILES | MT1-MMP act inh | MT1-MMP act inh RFP | UUG fidelity | CSC inhib | Rce1 inhib | HIV Env fusion | eIF4H FP inh | PABP polyA inh | others
COc1cccc(N=c2oc3c(C)ncc(CO)c3cc2C(=O)Nc2ccccc2OC)c1 | / | / | / | / | i | / | -2 | 1
CC1Cc2ccccc2N1C(=O)CSc1nnc(C2CC2)n1C (stereo unspecified) | -1 | 3 | / | 14 | i | 1 | -17 | -14
O=C(Nc1ccccc1Cc1ccccc1)c1ccncc1 | -1 | 5 | -22 | -1 | i | -21 | -12 | 2
Cc1ccc(S(=O)(=O)N2CCN(c3ccc([N+](=O)[O-])c(Sc4nncn4C)c3)CC2)cc1 | 1 | -5 | / | -11 | i | 27 | 2 | -6
N=c1n(CCN2CCCCC2)c2ccccc2n1CC(O)c1ccco1 (stereo unspecified) | 4 | -1 | / | 0 | i | -5 | 4 | 8
N#CCC(=O)Nc1ccc(C(=O)OCC(=O)Nc2cccc(C(F)(F)F)c2)cc1 | 6 | 3 | / | -3 | i | 10 | -4 | 9
CCSC1=N/C(=C\c2ccc(C)s2)C(=O)S1 | -5 | 7 | -13 | -15 | i | 0 | 2 | 4
O=C(c1ccc(N2CCCC2=O)cc1)N1CCN(c2ccccc2Cl)CC1 | 1 | -6 | 15 | -5 | / | / | / | /
CC1CCC(NC(=O)C2CCN(S(=O)(=O)c3ccc4nc5c(c(C(=O)O)c4c3)CC(C)CC5)CC2)CC1 (stereo unspecified) | 0 | 3 | -2 | -1 | i | 2 | -2 | 74 | eIF4H FP inh retest=-1;PABP polyA inh retest=6
Cn1cnnc1SCc1ccc(C(=O)n2ncc(C#N)c2N)cc1 | 1 | 3 | -32 | 11 | i | -76 | -3 | 0

Pulled one by one from the entries so far (two):
SMILES | MT1-MMP act inh | MT1-MMP act inh RFP | UUG fidelity | CSC inhib | Rce1 inhib | HIV Env fusion | eIF4H FP inh | PABP polyA inh | others
CCSC1=N/C(=C\c2ccc(C)s2)C(=O)S1 | -5 | 7 | -13 | -15 | i | 0 | 2 | 4
O=C(c1ccc(N2CCCC2=O)cc1)N1CCN(c2ccccc2Cl)CC1 | 1 | -6 | 15 | -5 | / | / | / | /

(further entries)
SMILES | MT1-MMP act inh | MT1-MMP act inh RFP | UUG fidelity | CSC inhib | Rce1 inhib | HIV Env fusion | eIF4H FP inh | PABP polyA inh | others
COc1ccc(OC)c(S(=O)(=O)NC(C)(C)C)c1 | 3 | 3 | -10 | / | i | -6 | -8 | -4
Cc1ccc(S(=O)(=O)N(CCC#N)CCN2CCCC2)cc1 | 4 | 6 | -22 | -15 | i | / | -2 | 4
CCn1ncc(C2C(C(=O)Nc3ccc(C)cn3)=C(C)NC3=C2C(=O)CCC3)c1C (stereo unspecified) | 5 | 5 | / | 8 | i | -7 | -6 | 1
O=C(NCC1CCCCC1)C1CCN(C(=O)NC2CCCCC2)CC1 | -3 | 0 | -11 | -10 | i | -4 | 1 | 6
O=C(NNC(=O)C1CCN(Cc2ccc(F)cc2Cl)CC1)Nc1ccc([N+](=O)[O-])cc1 | 2 | -2 | / | 0 | i | -1 | -7 | -7
CSc1ncnc2c1ccn2CC(=O)Nc1ccc(C)c(C)c1 | 6 | 0 | -12 | 3 | / | 2 | / | /
COCCCNC(=O)c1c[nH]c2ccc(S(=O)(=O)N3CCC4(CC3)OCCO4)cc2c1=O | 1 | 2 | / | -6 | i | 2 | -7 | ?
O=S1(=O)CC(O)C(NCc2cccnc2)C1 (stereo unspecified) | 4 | -5 | 3 | -8 | i | / | -1 | -2
C=CCN1C(=O)c2ccc(C(=O)NCC(=O)Nc3c(C)cc(C)cc3C)cc2C1=O | -2 | 0 | 6 | 9 | / | / | / | /
CCOc1ccc(NC(=O)Nc2cc(C)on2)cc1 | 2 | 4 | -24 | -4 | i | -62 | 2 | 8
CCCCOC(=O)CSC1=C(C#N)C(c2ccccc2OCC)C(C#N)C(=O)N1 (stereo unspecified) | -3 | 4 | -10 | / | i | / | 0 | -1
CCc1cc(C(=O)Cc2nc3ccccc3[nH]2)c(O)cc1O | 0 | -1 | -16 | 18 | i | -182 | -3 | -2
